Source: PubChem BioAssay
Menin-MLL FL inh: menin-MLL binding inhibition, fluorescein peptide; 290,000 tested, under 10 active; FP activity change, % at 61.4 µM; Fluorescence polarization, fluorescein-MLL peptide displacement from menin; AID 1766; inconclusive = falling polarisation curve, or a change in total fluorescence; inactive = total fluorescence flat and polarisation flat or rising; no compound was filed as active; the % refers to the polarisation; negative = inhibition;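 further: % of control where 0% means no effect; inhibitors lower the polarisation; unlabelled MLL peptide was the positive control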
ClpP mod: qHTS Assay for Activators of ClpP | purified B. subtilis ClpP, FRET peptide cleavage, 20 min | Potency, µM (top dose mostly 57.5 µM), inactives show at the highest dose activity change, negative = active | ATP-dependent Clp protease proteolytic subunit (Bacillus subtilis (strain 168)), P80244 | hit rate 1.9% among 340,000; active = well fitted falling curve with a large enough effect; inconclusive = small, poorly fitted or top-dose-only effect; inactive = no such curve, though single readings can be large or run the other way; further: potency means the concentration at half of the fitted maximal effect; the source files actives as falling curves though it sought activators and does not explain the sign; nearly all actives have a fitted effect of over 65% in size; many hits overshoot -100%
Target sequence (P80244 whole entry, looked up): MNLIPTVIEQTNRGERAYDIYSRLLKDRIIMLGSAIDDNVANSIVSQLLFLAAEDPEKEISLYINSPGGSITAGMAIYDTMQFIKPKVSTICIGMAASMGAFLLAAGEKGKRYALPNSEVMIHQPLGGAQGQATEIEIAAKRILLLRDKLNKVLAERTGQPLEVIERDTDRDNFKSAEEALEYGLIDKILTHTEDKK
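ClpP 10 microg/mL final, pH 8 Tris/KCl buffer with BSA, glycerol, Tween-20; compound pinned in; FRET-FV substrate; RT 20 min; Ex320/Em430; ΔFRET vs ADEP 5.8 microM, DMSO, no enzyme.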
gsp agonist: agonists of gsp mutant (McCune-Albright syndrome) | gsp mutant cells, cAMP HTRF, 30 min; control for the full effect not named in the record | Potency, µM (series often up to 76.9 µM), inactives show at the highest dose activation (cAMP increase), usual class: activators | hit rate 0.13% among 340,000 | AID 624287; active = well fitted activation curve with a large enough effect; inconclusive = small, poorly fitted or top-dose-only effect, or another doubt; inactive = no such curve, though single readings can be large or run the other way; cell line not stated here;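 further: phosphodiesterase inhibitor Ro 20-1724 added with compounds to block cAMP breakdown; potency means the concentration at half of the fitted maximal effect; nearly all actives have a fitted effect of over 60% in size; about a fifth of the inactives were tested at one dose only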
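Cells in DMEM/10% FBS with G418 were pretreated with compounds in DMSO plus […] (300 uM stock) for 30 min at 37C. cAMP was measured by HTRF (cAMP-d2 plus anti-cAMP antibody-K) after 30 min at room temperature.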
TRPV1 potentiator: potentiators of human vanilloid receptor 1 (TRPV1); hit rate 0.02% among 320,000; potentiation, % at 8.33 µM; Q8NER1; TRPV1-expressing cells, Fluo-8 calcium influx, capsaicin EC20 potentiation; host cell line not named in the record; control for the full effect not named in the record; AID 540277; active means potentiation above 80%; inconclusive means 30% to 80%; inactive means below 30%; further: 0% is about no effect
Target sequence (Q8NER1 whole entry, looked up): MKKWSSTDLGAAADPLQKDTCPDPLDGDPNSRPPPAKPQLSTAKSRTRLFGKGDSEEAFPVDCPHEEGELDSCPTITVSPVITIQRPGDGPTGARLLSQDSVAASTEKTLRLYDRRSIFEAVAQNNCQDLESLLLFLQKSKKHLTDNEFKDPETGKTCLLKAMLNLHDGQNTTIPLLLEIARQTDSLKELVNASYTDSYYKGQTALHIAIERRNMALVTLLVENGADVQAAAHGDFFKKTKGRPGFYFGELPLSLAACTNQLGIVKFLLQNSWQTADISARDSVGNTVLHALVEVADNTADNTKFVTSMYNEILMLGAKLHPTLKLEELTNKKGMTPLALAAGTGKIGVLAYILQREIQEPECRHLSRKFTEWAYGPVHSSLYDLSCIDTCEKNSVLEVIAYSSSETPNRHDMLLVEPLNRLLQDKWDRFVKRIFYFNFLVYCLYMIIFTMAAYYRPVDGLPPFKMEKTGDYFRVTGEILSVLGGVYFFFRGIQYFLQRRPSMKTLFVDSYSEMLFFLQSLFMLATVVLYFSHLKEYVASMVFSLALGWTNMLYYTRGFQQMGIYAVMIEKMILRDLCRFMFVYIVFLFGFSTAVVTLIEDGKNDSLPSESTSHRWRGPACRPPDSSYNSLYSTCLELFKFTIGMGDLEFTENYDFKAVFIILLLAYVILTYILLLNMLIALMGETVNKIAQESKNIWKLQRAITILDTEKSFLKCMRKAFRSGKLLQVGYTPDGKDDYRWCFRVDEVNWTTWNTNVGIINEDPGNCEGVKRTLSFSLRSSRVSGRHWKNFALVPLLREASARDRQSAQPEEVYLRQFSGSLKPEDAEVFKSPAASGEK
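Fluo-8 calcium influx in TRPV1-expressing cells, kinetic read (ex 480/em 520 nm). Compound added and read 3 min for agonist activity, followed by capsaicin at EC20 final and 2 min further read for enhancement.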
Sfp PPTase inh: inhibitors of Bacillus subtilis Sfp phosphopantetheinyl transferase. Q9F4F7. Biochemical Sfp PPTase activity, qHTS. Potency, µM, for inactives: max response, negative = inhibition, usual class: inhibitors. hit rate 3.5% among 310,000. AID 1490; active means well fitted inhibition curve with a large enough effect; inconclusive means small, poorly fitted or top-dose-only effect, or another doubt; inactive means no such curve, though single readings can be large or run the other way;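 further: the enzyme is Sfp with the accession as filed and its product quenches rhodamine fluorescence; potency means the concentration at half of the fitted maximal effect; 0% = enzyme reaction without inhibitor and -100% = no enzyme wells; top concentration of the series not given in the record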
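After 15 min at room temperature with compound, 15 nM Sfp received 5 uM rhodamine-CoA plus 12.5 uM BHQ-2-ybbR (50 mM Hepes pH 7.6, 10 mM MgCl2). Rate came from the fluorescence difference over 30 min, ex 525/em 598 nm.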
gsp antagonist: gsp mutant antagonism; gsp-mutant cells, cAMP HTRF, 30 min; control for the full effect not named in the record; Potency, µM (series often up to 76.9 µM), for the others: top-dose activity change, negative = inhibition, actives largely listed as inhibitors; hit rate 0.4% among 340,000; active = falling curve of any shape with a large fitted effect; inconclusive = falling curve, mostly with a smaller effect; inactive = flat or rising curve; cell line not stated here;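 further: intracellular cAMP measured with PDE inhibitor Ro 20-1724 present during compound exposure; potency means the concentration at half of the fitted maximal effect; on the % scale 0 is the no-effect control and ±100 the full control effect; nearly all actives have a fitted effect of over 65% in size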
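Cells in G418 medium, seeded 16-24 h, 37C; buffer exchange to DPBS + 1 mM CaCl2, 0.5 mM MgCl2, 0.05% BSA; cpds in DMSO + […] (300 uM stock), 30 min 37C; HTRF cAMP detection.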
D2 potentiator: positive allosteric modulators of human D2 dopamine receptor; P14416; DiscoveRx D2 beta-arrestin cells, luminescence, 90 min; 100% = 57 uM dopamine signal; potentiation, % (concentration not given with the values); hit rate 0.23% among 360,000; AID 624464; active = potentiation of 50% or more; inconclusive = 30% to 50%; inactive = 30% or less;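 further: compound concentration not given in the record; tested on top of an EC20 dose of dopamine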
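PathHunter beta-arrestin assay in DiscoveRx D2 cells. Compounds were added with an EC20 of dopamine (50 nM final) for 90 min at 37 deg C. Luminescence was read 1 h after detection reagent, with 57 uM dopamine as the EC100 control.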
Numbers without * were called inactive; [ ] = dose if it differs, or a comment. Rows are unselected. About 5.1% of those tested had a hit in this group.

Results for COc1cc(C(=O)N2CCC(C(=O)Nc3cccc(C(C)=O)c3)CC2)cc(OC)c1OC ?
Menin-MLL FL inh: 2.4; ClpP mod: 1.3%; gsp agonist: 7%; TRPV1 potentiator: -3; Sfp PPTase inh: 11%; gsp antagonist: 5%; D2 potentiator: -4

Results for CN1CCN(C(=O)c2ccc(C(C)(C)C)cc2)CC1 ?
Menin-MLL FL inh: -0.4; ClpP mod: -1.3%; gsp agonist: 1%; TRPV1 potentiator: 21; Sfp PPTase inh: 10%; gsp antagonist: 16%; D2 potentiator: -8

Results for CC(=O)N1c2ccccc2C2CCCC[C@@H]21 (stereo partly specified) ?
ClpP mod: -3.0%; gsp agonist: -82%[inhibitor]; TRPV1 potentiator: 2; gsp antagonist: 11%; D2 potentiator: -3

Results for CCCSc1nc(O)c(C2OC(=O)c3c2ccc(OC)c3OC)c(=O)n1-c1ccccc1 (stereo unspecified) ?
Menin-MLL FL inh: 1.3; ClpP mod: -6.3%; gsp agonist: -4%; TRPV1 potentiator: 11; Sfp PPTase inh: 16%; gsp antagonist: -14%; D2 potentiator: -14

Results for CCOC(=O)c1ccc(NC(=O)Cn2nnc(-c3ccc(F)cc3)n2)cc1 ?
Menin-MLL FL inh: -0.9; ClpP mod: 2.0%; gsp agonist: -5%; TRPV1 potentiator: -1; Sfp PPTase inh: 13%; gsp antagonist: 13%; D2 potentiator: -7

How did Cc1ccccc1Cn1cnc2c(cnn2C(C)(C)C)c1=O do in these assays?
Menin-MLL FL inh: -0.3; ClpP mod: -3.1%; gsp agonist: 5%; TRPV1 potentiator: -19; Sfp PPTase inh: 4%; gsp antagonist: 4%; D2 potentiator: -15

What do the screens show for `Cc1ccc[n+](CC(=O)/C=C2\N(C)c3ccccc3C2(C)C)c1`?
Menin-MLL FL inh: 0.4; ClpP mod: 0.3%; gsp agonist: -10%; TRPV1 potentiator: 6; Sfp PPTase inh: 7%; gsp antagonist: 17%; D2 potentiator: -31

What do the screens show for `CCCCC(=O)NC(=S)NNC(=O)c1ccc(OC)cc1`?
Menin-MLL FL inh: -0.7; gsp agonist: -2%[15.4 µM]; TRPV1 potentiator: 6; Sfp PPTase inh: 1%; gsp antagonist: 3%; D2 potentiator: -19

How did O=C(O)CNS(=O)(=O)c1ccc(C2CCCCC2)cc1 do in these assays?
Menin-MLL FL inh: -4.8; gsp agonist: -12%[15.4 µM]; TRPV1 potentiator: 2; Sfp PPTase inh: 20%; gsp antagonist: 10%; D2 potentiator: -2

Results for CC(C)Cn1c(SCC(=O)c2ccc(Cl)s2)nnc1-c1ccco1 ?
Menin-MLL FL inh: 0.3; ClpP mod: -1.1%; gsp agonist: 0%; TRPV1 potentiator: 22; Sfp PPTase inh: inconclusive; gsp antagonist: -15%; D2 potentiator: -7

Results for Cc1ccc(NC(=O)Cc2c(O)c3ccccc3[nH]c2=O)c(C)c1 ?
Menin-MLL FL inh: 5.3; gsp agonist: -8%[15.4 µM]; Sfp PPTase inh: 7%; gsp antagonist: -5%; D2 potentiator: -5

Results for COc1ccc(-c2nn(-c3ccccc3)cc2N)cc1 ?
Menin-MLL FL inh: -0.3; gsp agonist: 9%[15.4 µM]; TRPV1 potentiator: 0; Sfp PPTase inh: -17%; D2 potentiator: -11

What do the screens show for `CC(=O)c1nn(-c2cccc(Cl)c2)cc1C(=O)c1ccco1`?
Menin-MLL FL inh: -2.3; ClpP mod: 0.8%; gsp agonist: -5%; TRPV1 potentiator: 0; Sfp PPTase inh: 7%; gsp antagonist: -6%; D2 potentiator: 12

What do the screens show for `O=C(CN1C(=O)CCC1=O)Nc1nc(-c2ccc(Oc3ccccc3)cc2)cs1`?
Menin-MLL FL inh: 1.3; ClpP mod: -2.1%; gsp agonist: 1%; TRPV1 potentiator: -5; Sfp PPTase inh: -5%; gsp antagonist: -23%; D2 potentiator: -12

How did CCCCNc1nnc(SCC(=O)N2CCN(S(=O)(=O)c3ccc4ccccc4c3)CC2)s1 do in these assays?
Menin-MLL FL inh: 1.9; ClpP mod: 0.3%; gsp agonist: -3%; TRPV1 potentiator: 3; Sfp PPTase inh: 18%; gsp antagonist: -7%; D2 potentiator: -5

How did O=C(OCC(O)CO)c1ccccc1Nc1ccnc2cc(Cl)ccc12 (stereo unspecified) do in these assays?
Menin-MLL FL inh: -0.9; ClpP mod: inconclusive; TRPV1 potentiator: 4; Sfp PPTase inh: -12%; gsp antagonist: 0%; D2 potentiator: 0

What do the screens show for `COCC(C)NC(=O)COc1ccc(Cl)cc1Cl` (stereo unspecified)?
Menin-MLL FL inh: 0.6; ClpP mod: -1.3%; gsp agonist: -19%; TRPV1 potentiator: 21; Sfp PPTase inh: 2%; gsp antagonist: 1%; D2 potentiator: -7

How did Cc1c(C(=O)Nc2ccccc2-c2ccccc2)cccc1[N+](=O)[O-] do in these assays?
Menin-MLL FL inh: 2.0; ClpP mod: 0.9%; gsp agonist: -3%; TRPV1 potentiator: 5; Sfp PPTase inh: 14%; gsp antagonist: -6%; D2 potentiator: -3

How did Cc1ccc(CSc2nc3c(c(=O)[nH]2)C(c2ccncc2)C2=C(CCCC2=O)N3)cc1 (stereo unspecified) do in these assays?
Menin-MLL FL inh: -0.6; ClpP mod: 14µM*; gsp agonist: inconclusive; TRPV1 potentiator: 17; Sfp PPTase inh: -4%; gsp antagonist: 4%; D2 potentiator: -16

Results for Cc1c(C(=O)N2CCc3ccccc32)oc2c1C(=O)CC(C)(C)C2 ?
Menin-MLL FL inh: 0.4; ClpP mod: 5.1%; gsp agonist: 1%; TRPV1 potentiator: -14; Sfp PPTase inh: 2%; gsp antagonist: -3%; D2 potentiator: -5

Results for CCC(=O)NC1(Cc2ccc(O)cc2)CCCCC1 ?
Menin-MLL FL inh: 1.9; gsp agonist: -27%; TRPV1 potentiator: -5; Sfp PPTase inh: 10%; gsp antagonist: 2%; D2 potentiator: -2

What do the screens show for `Cn1c(-c2ccccc2)c(/C=N/NC(=O)c2ccc(O)cc2)c2ccccc21`?
Menin-MLL FL inh: -1.1; ClpP mod: inconclusive; gsp agonist: 11%; TRPV1 potentiator: -4; Sfp PPTase inh: 16%; gsp antagonist: inconclusive; D2 potentiator: -13

What do the screens show for `CCOc1cc(C(=O)Nn2cnnc2)cc(OCC)c1OCC`?
Menin-MLL FL inh: -7.2; gsp agonist: 13%[15.4 µM]; TRPV1 potentiator: 3; Sfp PPTase inh: 10%; D2 potentiator: -24

Results for Cc1cc(S(=O)(=O)N2CCOCC2)ccc1OCC(=O)Nc1ccccc1C(F)(F)F ?
gsp agonist: -12%[15.4 µM]; TRPV1 potentiator: 4; Sfp PPTase inh: 17%; gsp antagonist: 10%; D2 potentiator: -10

Results for COc1ccc(CN(C)C(=O)Cn2ccc(N)nc2=O)cc1OC ?
ClpP mod: 1.0%; TRPV1 potentiator: -24; gsp antagonist: 10%; D2 potentiator: -6

How did COc1ccc(Cn2ccnc2)cc1[N+](=O)[O-] do in these assays?
Menin-MLL FL inh: 4.8; gsp agonist: 6%[15.4 µM]; TRPV1 potentiator: 27; Sfp PPTase inh: 3%; gsp antagonist: 1%; D2 potentiator: -3

What do the screens show for `Cc1cccc(N2C(=N)SCC2=O)c1C`?
Menin-MLL FL inh: 1.3; ClpP mod: -1.8%; gsp agonist: -44%[inhibitor]; TRPV1 potentiator: 25; Sfp PPTase inh: 13%; gsp antagonist: 2%; D2 potentiator: -2

Results for CN1CCN(S(=O)(=O)c2ccccc2)C(c2ccccc2)C1 (stereo unspecified) ?
ClpP mod: 1.5%; gsp agonist: 15%; gsp antagonist: 16%; D2 potentiator: -2

What do the screens show for `COc1cc2c(C(F)(F)F)c(-c3ccc(C#N)cc3)oc(=O)c2cc1OC`?
ClpP mod: -9.2%; gsp agonist: 3%; gsp antagonist: 4%; D2 potentiator: -4

How did O=C(CSc1nncs1)Nc1cc(S(=O)(=O)N2CCOCC2)ccc1N1CCCC1 do in these assays?
ClpP mod: -15%; gsp agonist: 22µM*; TRPV1 potentiator: 4; gsp antagonist: 9%; D2 potentiator: -6

What do the screens show for `CN(C)/C=N/c1nc2nccc(-c3cccc(Cl)c3)n2n1`?
Menin-MLL FL inh: 0.8; gsp agonist: 5%[15.4 µM]; TRPV1 potentiator: -15; Sfp PPTase inh: 16%; D2 potentiator: -4

How did Cc1noc(C)c1S(=O)(=O)N1CCCC(C(=O)NCC2CCCO2)C1 (stereo unspecified) do in these assays?
Menin-MLL FL inh: 1.6; ClpP mod: 1.8%; gsp agonist: -50%[inhibitor]; TRPV1 potentiator: 0; Sfp PPTase inh: 14%; gsp antagonist: 21%; D2 potentiator: -16

Results for CCN(c1ccccc1)S(=O)(=O)c1ccc(C(=O)Nc2cc(C)ccn2)cc1 ?
ClpP mod: 0.9%; gsp agonist: 21%; TRPV1 potentiator: 0; gsp antagonist: -2%; D2 potentiator: -8

Results for Cc1ccc2c(c1)[C@@H]1[C@H](CO2)[C@H](c2ccccc2)[C@@]2(C)C(=O)N[C@H](C)C(=O)N12 ?
ClpP mod: -1.0%; gsp agonist: -35%[inhibitor]; gsp antagonist: 0%; D2 potentiator: -8

What do the screens show for `COc1cc(/C=C2/NC(=O)NC2=O)cc(Br)c1OCc1cccc(C(=O)O)c1`?
Menin-MLL FL inh: 0.7; gsp agonist: 26%[15.4 µM]; TRPV1 potentiator: 5; Sfp PPTase inh: -9%; gsp antagonist: -7%; D2 potentiator: -3

How did CS(=O)(=O)N1CCN(c2ncnc3c2cnn3-c2ccccc2)CC1 do in these assays?
Menin-MLL FL inh: 0.9; gsp agonist: 2%[15.4 µM]; TRPV1 potentiator: -1; Sfp PPTase inh: 5%; gsp antagonist: -7%; D2 potentiator: -4

How did CC(C)CCn1cnc2c(NCc3ccccc3)ncnc21 do in these assays?
Menin-MLL FL inh: -0.4; ClpP mod: 0.0%; gsp agonist: 1%; TRPV1 potentiator: -11; Sfp PPTase inh: -4%; gsp antagonist: 10%; D2 potentiator: -1

Results for O=C(CN1CCC(n2nnc3cc(F)ccc32)CC1)NC1CC1 ?
Menin-MLL FL inh: -1.2; ClpP mod: -6.2%; gsp agonist: -22%; TRPV1 potentiator: 1; Sfp PPTase inh: 4%; gsp antagonist: 7%; D2 potentiator: -16

How did C/C(=N\NC(=O)CN1CCN(S(=O)(=O)c2ccc(C)cc2)CC1)c1ccncc1 do in these assays?
Menin-MLL FL inh: -2.1; ClpP mod: -2.4%; gsp agonist: 21%; TRPV1 potentiator: -3; Sfp PPTase inh: 22%; gsp antagonist: 1%; D2 potentiator: -13
